A1 inhib: blocks A1 activity; MEF A1-2A-BIM cells, caspase-Glo luminescence, 3 h; percent of clofoctol signal, DMSO as zero; caspase activation, % (test concentration not listed); actives 0.51% (n = 21,000);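 active means most replicate scores above 10, or exactly half above 10 with mean activity above 10; inconclusive means mean activity below 10 while half the replicates exceed 10; inactive means most replicate scores below 10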;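 further: effector caspase 3 and 7 activity cleaving a DEVD luciferin substrate; 50 nL library stock added to about 30 µL; numbers are from one replicate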
BJeLR viability: lowers viability of BJeLR cells. actives 0.64% (n = 30,000). viability loss activity score, % (no concentration beside the values). BJeLR fibroblasts viability, CellTiterGlo ATP luminescence, 48 h; HRASV12, hTERT and SV40 LT/ST transformed; in the data active means viability loss activity score above about 50%; inconclusive means no clear call, values can overlap the other calls; inactive means below about 35%; about a fifth of its hits are not listed in these tables;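 further: higher score means fewer live cells and less ATP luminescence; stock transfer was 50 or 100 nL into about 30 µL; 0% = vehicle wells and 100% = a reference killing control; one replicate is shown; the record names a cut of 85%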
* marks the source's active call; other numbers are inactive results; ? = inconclusive; / = not tested or not shown. The list is partial; the hit share may differ from the screen's.

mol | A1 inhib | BJeLR viability
C[C@@H]1CN([C@@H](C)CO)C(=O)c2cccc(NC(=O)C3CC3)c2O[C@H]1CN(C)C(=O)Nc1ccc(C(F)(F)F)cc1 | / | -2.6
C[C@H](CO)N1C[C@H](C)[C@H](CN(C)S(=O)(=O)c2ccccc2)Oc2ccc(NC(=O)Cn3cnnn3)cc2C1=O | -0.1 | -5.8
C[C@@H]1CN([C@@H](C)CO)C(=O)c2cccc(NC(=O)c3ccncc3)c2O[C@H]1CN(C)S(=O)(=O)c1ccc(F)cc1 | / | 0.1
CNC[C@@H]1Oc2ccc(NC(=O)Nc3ccccc3)cc2C(=O)N([C@@H](C)CO)C[C@@H]1C | 0.1 | 12.2
O=C(CC12CC3CC(CC(C3)C1)C2)NC1CCN(Cc2ccccc2)CC1 | / | -4.7
C[C@@H]1O[C@@H](O[C@H]2[C@H](O)[C@@H](O[C@@H]3O[C@H](CO)[C@@H](O)[C@H](O[C@@H]4O[C@H](CO)[C@@H](O)[C@H](O)[C@H]4O)[C@H]3O)[C@H](O[C@H]3CC[C@@]4(C)C(=CC[C@@H]5C4CC[C@@]4(C)C5C[C@@H]5O[C@]6(CC[C@@](C)(CO[C@@H]7O[C@H](CO)[C@@H](O)[C@H](O)[C@H]7O)O6)[C@@H](C)[C@@H]54)C3)O[C@@H]2CO)[C@H](O)[C@H](O)[C@H]1O (stereo partly drawn) | 0.9 | ?
Cc1noc(C)c1S(=O)(=O)Nc1cccc2c1O[C@H](CN(C)C(=O)NC1CCCCC1)[C@H](C)CN([C@H](C)CO)C2=O | / | 6.4
C[C@H]1CN([C@@H](C)CO)C(=O)c2cccc(NC(=O)Nc3ccc(C(F)(F)F)cc3)c2O[C@@H]1CN(C)C(=O)NC1CCCCC1 | / | 4.2
C[C@@H]1CN([C@@H](C)CO)C(=O)c2cc(NC(=O)CCC(F)(F)F)ccc2O[C@@H]1CN(C)C(=O)Nc1cccc2ccccc12 | -1.0 | 5.6
CCn1nc(C)cc1C(=O)NN | 1.1 | 9.6
Cc1noc(C)c1NC(=O)Nc1cccc2c1O[C@@H](CN(C)C(=O)NC1CCCCC1)[C@@H](C)CN([C@H](C)CO)C2=O | / | 0.5
C[C@H]1CN([C@@H](C)CO)C(=O)c2cc(NS(=O)(=O)c3ccccc3)ccc2O[C@H]1CN(C)Cc1ccc(-c2ccccc2)cc1 | -0.1 | -0.5
O=C(Nc1ccc(OC(F)(F)F)cc1)OCCc1csc2ccccc12 | / | 6.8
O=C(NCCc1ccccc1)c1cc(-c2ccccc2)nc2ccccc12 | 0.7 | 0.8
O=C(CSc1nc2c(c(=O)[nH]1)CSC2)c1ccc(Cl)cc1 | 0.2 | 4.6
O=C1c2ccc(-c3ncc(-c4ccccc4)o3)cc2C(=O)N1c1ncn[nH]1 | -0.4 | -5.2
COc1cc(O)c(OC)c2c1C(=O)CC(c1ccccc1)O2 (stereo not drawn) | 0.4 | 5.6
CCOC(=O)N1CCN(C(=O)c2cccs2)CC1 | 0.6 | -3.7
CCCCCCCCC[C@@H](O)CC(=O)CCc1ccc(O)c(OC)c1 | 0.8 | -5.8
CNC[C@@H]1Oc2ccc(NS(=O)(=O)c3cccs3)cc2C(=O)N([C@@H](C)CO)C[C@@H]1C | -0.3 | -0.5
Cc1noc(C)c1S(=O)(=O)Nc1ccc2c(c1)C(=O)N([C@@H](C)CO)C[C@H](C)[C@H](CN(C)Cc1ccc(C(=O)Nc3ccccc3N)cc1)O2 | / | 6.7
CCCn1c(C)cc(C)c(C#N)c1=O | -0.1 | -2.6
C[C@H](CO)N1C[C@H](C)[C@@H](CN(C)Cc2ccccc2)Oc2c(NC(=O)Nc3ccccc3)cccc2C1=O | / | 2.8
CC(C)NC(=O)Nc1ccc2c(c1)C(=O)N([C@H](C)CO)C[C@H](C)[C@@H](CN(C)Cc1ccc(Oc3ccccc3)cc1)O2 | 0.3 | -6.7
O=C(O)c1c(O)cc(OC2OC(CO)C(O)C(O)C2O)cc1/C=C/c1ccccc1 (stereo not drawn) | 0.5 | -2.5
COc1ccc(OC)c(/C=C2\CC(c3ccccc3)C/C(=C\c3cc(OC)ccc3OC)C2=O)c1 (stereo not drawn) | / | -8.4
C[C@@H]1CN([C@@H](C)CO)C(=O)c2cc(NC(=O)c3ccncc3)ccc2O[C@H]1CN(C)C(=O)Nc1cccc2ccccc12 | 0.8 | 0.5
Cc1nc2nc(Cc3ccccc3)[nH]n2c(=O)c1Cc1ccccc1 | 2.2 | 1.3
COc1ccc(S(=O)(=O)N(C)C[C@H]2Oc3ccc(NC(=O)Cc4ccccc4)cc3C(=O)N([C@H](C)CO)C[C@H]2C)cc1 | 1.2 | 5.6
COc1ccc(C(=O)NCC#N)cc1 | 0.2 | 4.2
COc1ccc(S(=O)(=O)N(C)C[C@@H]2Oc3ccc(NC(=O)Nc4ccccc4)cc3C(=O)N([C@@H](C)CO)C[C@@H]2C)cc1 | -0.5 | 5.7
COC1(c2ccc(Cl)cc2)OC(=O)c2ccccc21 (stereo not drawn) | -0.2 | 1.3
CC(C)NC(=O)Nc1ccc2c(c1)C(=O)N([C@@H](C)CO)C[C@H](C)[C@@H](CN(C)Cc1ccc(C(=O)O)cc1)O2 | 0.4 | 1.8
Cc1ccc(S(=O)(=O)Nc2ccc3c(c2)C(=O)N([C@@H](C)CO)C[C@@H](C)[C@@H](CN(C)S(=O)(=O)c2ccc(C)cc2)O3)cc1 | -0.4 | 3.2
C[C@H]1CN([C@@H](C)CO)C(=O)c2cccc(NC(=O)c3nc4ccccc4s3)c2O[C@H]1CN(C)Cc1ccc(Cl)c(Cl)c1 | / | 3.8
CC(C)c1ccc(CNC(=O)CCc2ccccc2)cc1 | -1.2 | -5.4
C[C@H]1CN([C@@H](C)CO)C(=O)c2cccc(NC(=O)Nc3ccc4c(c3)OCO4)c2O[C@@H]1CN(C)S(=O)(=O)c1cccs1 | / | 0.2
CCCCC(CC)C(=O)Nc1c2c(nc3c1CCC3)CCCC2 (stereo not drawn) | 0.7 | 1.7
CCCNC(=O)C1CC(c2ccc(F)cc2)=NO1 (stereo not drawn) | / | -2.6
Oc1ccccc1C1Nc2ccccc2-c2nc3ccccc3n21 (stereo not drawn) | / | -2.9
C[C@H](CO)N1C[C@H](C)[C@H](CN(C)Cc2ccc(-c3ccccc3)cc2)Oc2c(NC(=O)c3nc4ccccc4s3)cccc2C1=O | / | 0.4
O=C(CN(Cc1ccc(Cl)cc1Cl)S(=O)(=O)c1ccccc1)N1CCCC1 | -0.1 | 2.7
C[C@H](CO)N1C[C@H](C)[C@H](CN(C)C(=O)NC2CCCCC2)Oc2ccc(NC(=O)c3ccncc3)cc2C1=O | 0.5 | -2.2
C[C@@H]1CN([C@H](C)CO)C(=O)c2cccc(NC(=O)Nc3cccc4ccccc34)c2O[C@H]1CN(C)S(=O)(=O)c1ccc(Cl)cc1 | / | -2.1
C[C@H](CO)N1C[C@H](C)[C@@H](CN(C)C(=O)Nc2ccc(F)cc2)Oc2ccc(NS(=O)(=O)c3cccs3)cc2C1=O | 0.1 | 4.2
C[C@H]1CN([C@@H](C)CO)C(=O)c2cc(NC(=O)Nc3ccc(F)cc3)ccc2O[C@@H]1CN(C)S(=O)(=O)c1cn(C)cn1 | 0.4 | -5.8
S=C(NCCc1ccccn1)Nc1ccccc1 | 1.1 | 3.2
O=C1c2ccccc2C2=Nc3ccccc3SC(c3ccccc3F)C12 (stereo not drawn) | / | 4.2

Some of the entries above, reformatted:
Each structure is followed by: A1 inhib, BJeLR viability
C[C@H](CO)N1C[C@H](C)[C@H](CN(C)Cc2ccc(-c3ccccc3)cc2)Oc2c(NC(=O)c3nc4ccccc4s3)cccc2C1=O
    /, 0.4
O=C(CN(Cc1ccc(Cl)cc1Cl)S(=O)(=O)c1ccccc1)N1CCCC1
    -0.1, 2.7
C[C@H](CO)N1C[C@H](C)[C@H](CN(C)C(=O)NC2CCCCC2)Oc2ccc(NC(=O)c3ccncc3)cc2C1=O
    0.5, -2.2
C[C@@H]1CN([C@H](C)CO)C(=O)c2cccc(NC(=O)Nc3cccc4ccccc34)c2O[C@H]1CN(C)S(=O)(=O)c1ccc(Cl)cc1
    /, -2.1
C[C@H](CO)N1C[C@H](C)[C@@H](CN(C)C(=O)Nc2ccc(F)cc2)Oc2ccc(NS(=O)(=O)c3cccs3)cc2C1=O
    0.1, 4.2

Continued:
mol | A1 inhib | BJeLR viability
Nc1cc(=O)[nH]c(=O)n1-c1ccc(Cl)cc1 | 0.4 | 1.4
C[C@@H]1CN([C@@H](C)CO)C(=O)c2cc(NC(=O)C3CC3)ccc2O[C@@H]1CN(C)Cc1ccncc1 | 0.0 | -6.8
O=C1CC(Cc2ccc(Cl)cc2)C(=O)N1c1ccccn1 (stereo not drawn) | -0.2 | -1.2
COc1ccc(NC(=O)N(C)C[C@@H]2Oc3c(NC(=O)c4cnccn4)cccc3C(=O)N([C@@H](C)CO)C[C@@H]2C)cc1 | / | 0.3
Cc1noc(C)c1NC(=O)N(C)C[C@@H]1Oc2c(NC(=O)C3CCOCC3)cccc2C(=O)N([C@H](C)CO)C[C@@H]1C | / | 4.1
C=CCN(CC=C)c1nc(-c2ccccc2)nc2ccccc12 | -0.1 | 8.7
Cc1cc(C(=O)Nc2cccc3c2O[C@@H](CN(C)Cc2ccc(C(F)(F)F)cc2)[C@H](C)CN([C@@H](C)CO)C3=O)n(C)n1 | / | 0.7
CC1CCCN(S(=O)(=O)c2ccc3[nH]c(=O)cc(C(=O)NC(C)CCc4ccccc4)c3c2)C1 (stereo not drawn) | 0.8 | 12.2
Cc1ccc(S(=O)(=O)Nc2cccc3c2O[C@H](CN(C)C(=O)Nc2ccc(C(F)(F)F)cc2)[C@@H](C)CN([C@H](C)CO)C3=O)cc1 | / | -3.1
CC(C)NC(=O)N(C)C[C@@H]1Oc2ccc(NC(=O)NC3CCCCC3)cc2C(=O)N([C@H](C)CO)C[C@@H]1C | 0.5 | -0.9
O=C1C=C(c2ccc(Br)cc2)OC(=O)C1C(=O)c1ccc(Br)cc1 (stereo not drawn) | 0.7 | 5.6
CCCNC(=O)C1CCN(c2nn3c(=O)cc(C)nc3s2)CC1 | 0.0 | -3.7
COc1ccc(CN(C)C[C@@H]2Oc3c(NC(=O)Nc4ccc(OC)cc4)cccc3C(=O)N([C@H](C)CO)C[C@H]2C)cc1 | / | 1.5
C[C@H](CO)N1C[C@H](C)[C@H](CN(C)Cc2ccc(C(=O)O)cc2)Oc2c(NC(=O)Nc3ccc(F)cc3)cccc2C1=O | / | -0.4
c1ccc(CSc2ncnc3c2oc2ccccc23)cc1 | -1.2 | 2.0
Oc1ccc2ccccc2c1C1Nc2ccccc2-n2cccc21 (stereo not drawn) | 0.2 | -3.4
O=C(CCc1ccccc1)Nc1ccc(C(=O)OC2CCCCC2)cc1 | -0.1 | 0.8
O=c1cc(NCc2ccccc2)n(-c2ccccc2)c(=O)n1-c1ccccc1 | 0.1 | 1.3
N#CCSc1nc(C2CC2)cc(-c2ccc(F)cc2)c1C(N)=O | -0.3 | -5.0
CCCc1c(C(=O)N(Cc2ccccc2)Cc2cccs2)cnn1-c1ccccc1 | -0.2 | 5.7
O=C(c1ccco1)N1CCN(CCOc2ccccc2)CC1 | 0.5 | 2.4
CCOC(=O)C1=C(C)NC(=S)NC1c1ccc(-c2ccccc2Cl)o1 (stereo not drawn) | 0.1 | -3.8
CCCOc1ccc(OCCSc2nc(N)cc(=O)[nH]2)cc1 | -5.5 | 1.8
COc1ccccc1C1CCN(Cc2cccc3ccccc23)CC1 | 1.9 | 1.6
CC1(C)Oc2ccc3ccc(=O)oc3c2CC1O (stereo not drawn) | 0.0 | 16.6
C[C@@H]1CN([C@@H](C)CO)C(=O)c2cccc(NS(C)(=O)=O)c2O[C@@H]1CN(C)S(C)(=O)=O | / | 6.0
Cc1nn(-c2ccccc2)c(C)c1Sc1n[nH]c(=O)[nH]c1=O | 0.0 | -4.0
C[C@@H]1CN([C@H](C)CO)C(=O)c2cc(NC(=O)Nc3cccc4ccccc34)ccc2O[C@H]1CN(C)S(=O)(=O)c1ccc(F)cc1 | -0.2 | -1.0
O=C(NCCO)c1cc[n+](CC(=O)c2cccs2)cc1 | 0.6 | 0.1
C[C@H](CO)N1C[C@H](C)[C@@H](CN(C)CC2CC2)Oc2c(NC(=O)C3CC3)cccc2C1=O | / | 0.3
CCN(CC)C(=O)CSC1=Nc2ccccc2C2=NC(Cc3c[nH]c4ccccc34)C(=O)N12 (stereo not drawn) | 0.7 | -1.8
C[C@H](CO)N1C[C@H](C)[C@@H](CN(C)C(=O)NC2CCCCC2)Oc2c(NC(=O)Nc3ccc(C(F)(F)F)cc3)cccc2C1=O | / | 0.0

Reprinted from the part before: 2 entries; new compounds follow.
mol | A1 inhib | BJeLR viability
CCN(CC)C(=O)CSC1=Nc2ccccc2C2=NC(Cc3c[nH]c4ccccc34)C(=O)N12 (stereo not drawn) | 0.7 | -1.8
C[C@H](CO)N1C[C@H](C)[C@@H](CN(C)C(=O)NC2CCCCC2)Oc2c(NC(=O)Nc3ccc(C(F)(F)F)cc3)cccc2C1=O | / | 0.0
CSc1scc2c1-c1nn(C(=O)c3ccc(Cl)cc3)cc1CC2 | 0.8 | -0.1
C[C@@H]1O[C@@H](O[C@@H]2[C@@H](O)[C@H](OC(=O)[C@]34CCC(C)(C)CC3C3=CCC5[C@@]6(C)CC[C@H](OC7OC(CO)C(OC8OCC(O)C(O)C8O)C(O)C7O)C(C)(C)C6CC[C@@]5(C)[C@]3(C)CC4O)O[C@H]2CO)[C@H](O)[C@H](O)[C@H]1O[C@H]1OC[C@](O)(CO)[C@H]1O (stereo partly drawn) | 0.3 | -6.9
C[C@@H]1CN([C@@H](C)CO)C(=O)c2cccc(NS(=O)(=O)c3ccc(F)cc3)c2O[C@H]1CN(C)Cc1ccc(-c2ccccc2)cc1 | / | 2.2
Cc1cccc(C2Nc3ccccc3C(=O)N2CCc2ccccc2)n1 (stereo not drawn) | -0.2 | 2.0

Compound activity as filed in PubChem.
